# Compound activity as filed in PubChem.
# RecA intein inh: inhibitors of M. tuberculosis RecA intein splicing; 290,000 tested, 0.75% active; inhibition, %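 (about 9 µM by stock and volumes)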; P9WHJ3; cell-free RecA intein splicing, fluorescence; AID 2221; in the data active = inhibition above about 30%; inconclusive = no clear call, values can overlap the other calls;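 also: 0% = vehicle wells and 100% = reference inhibitor control wells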
# Target sequence (P9WHJ3 whole entry, looked up): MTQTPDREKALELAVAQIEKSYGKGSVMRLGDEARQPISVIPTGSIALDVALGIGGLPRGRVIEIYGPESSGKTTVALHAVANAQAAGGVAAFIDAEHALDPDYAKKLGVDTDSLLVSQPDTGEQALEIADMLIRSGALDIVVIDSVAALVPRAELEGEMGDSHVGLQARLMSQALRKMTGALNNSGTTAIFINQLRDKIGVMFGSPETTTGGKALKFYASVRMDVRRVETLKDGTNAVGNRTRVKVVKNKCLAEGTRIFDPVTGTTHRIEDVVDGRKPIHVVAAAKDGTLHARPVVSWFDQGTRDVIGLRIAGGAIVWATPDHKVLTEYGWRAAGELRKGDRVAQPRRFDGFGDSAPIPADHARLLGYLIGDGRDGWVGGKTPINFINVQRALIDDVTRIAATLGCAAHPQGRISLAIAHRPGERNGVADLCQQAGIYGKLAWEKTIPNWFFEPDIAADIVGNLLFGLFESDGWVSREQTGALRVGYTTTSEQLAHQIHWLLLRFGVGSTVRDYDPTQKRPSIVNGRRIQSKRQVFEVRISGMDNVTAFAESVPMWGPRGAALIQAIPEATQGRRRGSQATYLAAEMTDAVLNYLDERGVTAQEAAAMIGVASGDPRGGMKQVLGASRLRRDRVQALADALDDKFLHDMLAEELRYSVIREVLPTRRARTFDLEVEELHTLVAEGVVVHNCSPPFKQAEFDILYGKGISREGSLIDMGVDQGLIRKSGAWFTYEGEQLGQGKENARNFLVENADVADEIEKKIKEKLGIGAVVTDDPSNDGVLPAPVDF
# Arbovirus inh: arbovirus infection inhibition; arbovirus infection cell-based antiviral screen; inhibition, % at 10 µM; 200,000 tested, 0.37% active; AID 1251;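 active = inhibition from about 30%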;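 also: bluetongue infection of BSR cells; cell survival read as ATP light after 72 h; 0% = infected wells without compound and 100% = uninfected wells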
# Mtb bLac sens: beta-lactam sensitization of Mtb H37Rv | AID 434955 | 330,000 tested, 0.27% active | inhibition, % at 25 µM | M. tuberculosis H37Rv growth with meropenem, percent inhibition; hits of this screen are not shown here;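 active = about 74% or more and at least 40 points above the plate without the antibiotic, then above 30% in a dose series; inconclusive = first-round hits that could not be retested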;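 also: growth measured after seven days incubation then overnight dye step; 0% = bacteria only wells and 100% = bacteria with antibiotic; twin plates without the antibiotic show which effects depend on it; some results filed as inactive read as strong as hits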
# Mtb growth: M. tuberculosis H37Rv growth inhibitors, H37Rv strain (AID 1626). M. tuberculosis H37Rv growth inhibition; higher % means a stronger effect. inhibition, % at 10 µM, or IC50 in µM where a hit was titrated. 220,000 tested, 0.95% active;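 active = confirmed in a dose series; inconclusive = inhibition above 80% but not taken into the dose series; inactive = below 80% or under 30% at every dose of the series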;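 also: bacteria incubated seven days before Alamar blue readout; 0% = bacteria only wells and 100% = bacteria with antibiotic wells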
# YopH PTP inh: blocks Yersinia enterocolitica YopH tyrosine phosphatase. fluorescence Ex485/Em525. inhibition, %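 (about 10 µM by stock and volumes)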. 140,000 tested, 0.16% active;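 active = inhibition of 50% or more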;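 also: controls were vehicle for no effect and minimum signal wells for full effect; inactives centre near -20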
# Arbovirus inh repeat: second read-out of Arbovirus inh, no call of its own (marks repeat the call); inhibition, %; measured here: 10K subset replicate screen; many hits read low in the repeat;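 first of two repeat runs on a subset; 0% = infected and 100% = uninfected wells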
# Numbers without * were called inactive; ? = inconclusive; . = no result given. An excerpt; rates above refer to the full screens.
SMILES,RecA intein inh,Arbovirus inh,Mtb bLac sens,Mtb growth,YopH PTP inh,others
CC1=CC(C)(C)N2C(=O)C3(NCCc4c3[nH]c3ccccc43)c3cc(C)cc1c32 (centres undefined),5.9,.,-5,3%,.,
Cc1ccccc1NC1=NC(=S)N(c2ccccc2)C12CCOC(C)(C)C2 (centres undefined),-1.1,-6,7,0%,-107,
Cc1cccc(NC(=S)N(Cc2cccs2)Cc2cc3cc(C)cc(C)c3[nH]c2=O)c1,-1.1,2,-4,-9%,-10,
N#Cc1cc(Sc2ccccn2)c(Sc2ccccn2)cc1C#N,1.1,-9,3,-15%,-19,
Cn1cc(C(=O)N/N=C/C(Br)=C/c2ccccc2)ccc1=O,-0.2,-9,25,?,-13,
COc1cc(C2Nc3ccc4ccccc4c3C3=C2C(=O)CC(C)(C)C3)ccc1OC(C)C(=O)O (centres undefined),-160,.,2,.,.,
Cc1cc2ncn(C(=O)N3CCC(C)CC3)c2cc1C,-4.2,4,-1,10%,29,
O=C(Cc1ccccc1F)NCC1(N2CCOCC2)CCCCC1,-0.2,.,-12,-6%,.,
Cc1cccc(N2CCN(C(=O)C3CCN(S(=O)(=O)N4CCOCC4)CC3)CC2)c1C,1.7,5,-3,2%,.,
Cc1ccc(S(=O)(=O)CCC(=O)OCC(=O)c2c(N)n(CC(C)C)c(=O)n(C)c2=O)cc1,-0.9,.,-3,.,.,
CCn1c(CNC(=O)c2ccccc2F)nnc1SCCOc1ccccc1,-3.0,-2,-2,-1%,.,
CC(=O)c1sc(NC(=O)CN2C(=O)C3CC=CCC3C2=O)nc1-c1ccccc1 (centres undefined),1.0,.,2,.,.,
CC(=O)c1cccc(NC(=O)/C=C/c2ccc([N+](=O)[O-])s2)c1,1.5,-16,.,6.5µM*,.,
Cc1ccccc1CSCCNC(=O)c1ccc(N(C)S(=O)(=O)c2ccccc2)cc1,12,4,9,10%,-35,
Cc1cc(OCC(=O)N(C)c2ccccc2)cc2c1C(=O)CC(C)(C)O2,.,.,0,-4%,.,
COc1ccc(S(=O)(=O)Cc2ccc(C(=O)NCCc3ccc(S(N)(=O)=O)cc3)o2)cc1,0.2,4,1,-2%,-50,Arbovirus inh repeat=5
Cc1cc(OCC(=O)N2CCOCC2)ccc1NC(=O)c1ccccc1C,-2.9,.,-10,.,.,
NC(=O)NC(=O)CC1S/C(=N/N=C2/NC(=O)CS2)NC1=O (centres undefined),-3.3,-3,0,-6%,.,
CNS(=O)(=O)c1cccc(C(=O)OCC(=O)c2c(N)n(C)c(=O)n(C)c2=O)c1,1.2,.,-2,3%,.,
Cc1cc(C)cc(NS(=O)(=O)c2ccc(-c3cnc(C4CC4)o3)cc2)c1,1.7,.,-8,.,.,
CC(C)(C)NC(=O)NC(=O)CSc1nnc2ccccn12,1.6,5,2,-3%,15,
CC(Sc1cnccn1)C(=O)O (centres undefined),-1.3,-1,4,-12%,.,
O=C(NCC1CCCO1)c1ccc(COc2ccccc2Br)cc1 (centres undefined),2.5,-12,10,19%,-16,
COc1ccc(/C=N/Nc2cc(C)nc(NS(=O)(=O)c3ccc(C)cc3)n2)cc1,0.9,-8,0,-7%,-30,
CCOC(=O)CSC1=N/C(=C\c2cccnc2)C(=O)N1c1ccc(OC)cc1,1.2,2,11,5%,-30,

# Random excerpt: four compounds from above
SMILES,RecA intein inh,Arbovirus inh,Mtb bLac sens,Mtb growth,YopH PTP inh,others
CC(=O)c1cccc(NC(=O)/C=C/c2ccc([N+](=O)[O-])s2)c1,1.5,-16,.,6.5µM*,.,
Cc1ccccc1NC1=NC(=S)N(c2ccccc2)C12CCOC(C)(C)C2 (centres undefined),-1.1,-6,7,0%,-107,
CCOC(=O)CSC1=N/C(=C\c2cccnc2)C(=O)N1c1ccc(OC)cc1,1.2,2,11,5%,-30,
Cc1cc(OCC(=O)N(C)c2ccccc2)cc2c1C(=O)CC(C)(C)O2,.,.,0,-4%,.,

# Continued:
SMILES,RecA intein inh,Arbovirus inh,Mtb bLac sens,Mtb growth,YopH PTP inh,others
CCOC(=O)N1CCN(C(=O)CCS(=O)(=O)c2ccc3c(c2)CCN3C(=O)CC)CC1,-1.5,.,-7,.,.,
O=S(=O)(c1ccc2nc(-c3ccccc3)[nH]c2c1)N1CCN(c2cccc(Cl)c2)CC1,0.9,-25,1,-3%,-23,
COc1cc(OC)c2c(c1)C(=O)c1cc(OC)cc(OC)c1C2=O,0.6,-7,-10,-7%,-24,
Cc1nc2scc(-c3cccs3)c2c(=O)n1-n1cccc1,4.5,-4,99,13%,-35,
O=C(CN1CCCN(S(=O)(=O)c2ccc(Br)s2)CC1)Nc1ccc(Cl)cc1,-0.1,1,92,-11%,-20,
COc1ccc(/C(O)=C2/C(=O)C(=O)N(CCCN(C)C)C2c2cccc(Cl)c2)cc1OC (centres undefined),-0.2,-6,-7,-5%,-15,
COc1cc(/C=N/NC(=O)c2cncc(Br)c2)cc([N+](=O)[O-])c1O,8.6,.,7,-4%,.,
CN=C(Nc1cc(C)nn1CCC#N)c1ccccc1F,.,3,-1,9%,-55,
c1coc(-c2nnc(NC3=NCCC3)o2)c1,-0.1,-6,-15,-8%,12,
COc1ccccc1N(C(=O)c1cncc(Br)c1)c1nc(-c2ccc(C)cc2)cs1,.,-2,1,-3%,-16,
O=C(CN1CCN(c2ccc(O)cc2)CC1)Nc1cc([N+](=O)[O-])ccc1Cl,2.2,-4,-3,-6%,13,
COc1ccc(OCc2cc(C(=O)NCCc3ccccc3)no2)c(Cl)c1,-0.6,.,10,.,.,
CCC(=O)Nc1sc2c(c1C#N)CCC2,-0.6,-11,-5,-9%,.,
CCN(C(=O)c1ccccc1)c1ccc([N+](=O)[O-])cc1,4.0,1,-10,-1%,-20,
CNC(=O)c1c(NC(=O)c2ccc(N3C(=O)CCC3=O)cc2)sc2c1CCC(C)C2 (centres undefined),-5.4,.,?,.,.,
COc1ccccc1Nc1nnc(SCC2CCCCO2)s1 (centres undefined),1.9,-17,-6,5%,.,
N#CC(C#N)=C(Nc1ccc(F)cc1)SCc1cccc(Br)c1,55*,-29,0,6%,-18,
Cc1nc2sccn2c(=O)c1CCN1CCC(=C(c2ccc(F)cc2)c2ccc(F)cc2)CC1,12,-44,99,10%,-4,
CCN(CC)S(=O)(=O)c1ccc(OC)c(N)c1,-0.5,6,3,3%,.,
Cc1ccc2nc(C)n(-c3ccc(F)cc3)c(=O)c2c1,2.6,4,-4,-2%,.,
O=C(CNCc1cccc(Cl)c1)N1CCc2ccccc2C1,-0.8,.,-1,.,.,
O=C(Cn1ncn2c(cc3ccccc32)c1=O)NCc1ccco1,1.7,3,-4,-5%,-25,
O=C(Cn1cnc([N+](=O)[O-])c1)c1ccc(F)cc1,-2.1,.,1,.,.,
Cc1cc(C)n(-c2nc3nonc3nc2Nc2cccc(C)c2C)n1,-10,16,-6,.,3,
Cc1cc(C(=O)N/N=C/c2cn(C)nc2C)c2ccccc2n1,0.8,.,?,.,.,
# The list goes on:
SMILES,RecA intein inh,Arbovirus inh,Mtb bLac sens,Mtb growth,YopH PTP inh,others
CC(=O)Nc1ccc(NC(=O)c2cccc(Oc3ccccc3)c2)cc1,-3.7,.,1,.,.,
Cc1ccc(C)c(NC(=O)CSc2ncnc3nc[nH]c23)c1,3.7,5,-1,3%,-19,
COc1cccc(CN2CC(C(=O)NCCc3ccccc3C(F)(F)F)CCC2=O)c1 (centres undefined),2.6,.,3,.,.,
CCC1(C(=O)OC)NC(c2ccco2)C2C(=O)N(c3ccc(F)cc3)C(=O)C21 (centres undefined),0.7,-1,-1,-3%,.,
COC(=O)c1cn(NC(=O)Cn2nc([N+](=O)[O-])c(Br)c2C)c(=O)c2ccccc12,-2.6,6,-4,-2%,.,
Cc1cccc2cc(CN(Cc3ccco3)C(c3nnnn3CCc3ccccc3)C(C)C)c(=O)[nH]c12 (centres undefined),27,-27,-4,23%,-24,
Cc1ccc(NC(=O)CCCCCN2C(=O)[C@@H]3Cc4ccccc4CN3C2=O)c(Cl)c1,2.9,.,79,.,.,
COc1ccc(CNC(=O)Cn2cc(C(F)(F)F)ccc2=O)cc1,-2.2,-3,1,-5%,-30,
Cc1ccc(-c2c(C(=O)N/N=C/c3ccc4c(c3)OCO4)nnn2-c2nonc2N)cc1,-3.0,.,0,.,.,
COc1cccc(NC2C=CS(=O)(=O)C2)c1 (centres undefined),-1.3,6,-1,-5%,-7,
COc1ccc(C2C(C#N)=C(N)Oc3cc(O)ccc32)cc1Cl (centres undefined),-9.0,.,3,.,.,
COC(=O)c1nnn(-c2nonc2N)c1CSc1nc2ccccc2s1,-0.4,3,3,2%,-63,
c1ccc(CN2CCN(c3nc(-c4ccccn4)nc4ccccc34)CC2)cc1,0.6,-12,3,?,-18,
COc1ccc(-c2nsc3c(N4CCN(S(=O)(=O)c5ccccc5F)CC4)ncnc23)cc1,-3.9,-8,4,-6%,-33,
CC1CC(C)CN(CC(O)COCc2ccccc2)C1 (centres undefined),-0.7,.,-2,.,.,
CC1CCCN(Cc2nc3c(c(=O)n(C)c(=O)n3C)n2CC(N)=O)C1 (centres undefined),0.7,2,-10,0%,-39,
COCCN(Cc1ccco1)C(=O)Cn1ncc2c(=O)oc3ccccc3c21,1.2,.,7,-14%,.,
CCOc1cc(/C=C2/C(=O)N(c3ccccc3)N=C2C)ccc1OC(=O)c1ccco1,78*,12,90,-1%,20,
Cn1cccc1/C=C1/C(=O)NC(=O)N(Cc2ccccc2)C1=O,3.9,6,54,9%,-20,
CC(=O)c1ccc(N2CCN(C(=O)COc3ccc(F)cc3)CC2)c(F)c1,0.4,8,-2,11%,-24,
O=C(O)CCC(=O)Nc1ccc(NC(=O)c2ccc(Cl)cc2Cl)c(Cl)c1,1.6,3,-1,-2%,.,
COc1ccc(NC2=C(NC(C)=O)C(=O)c3ccccc3C2=O)cc1,5.3,.,11,.,.,
O=C(COc1ccc(Cl)cc1)N(Cc1ccccc1)c1nc(-c2ccccc2)cs1,-2.5,-4,-11,-6%,-29,
O=C(NC(=O)N1CCCCC1)c1ccccc1,1.3,2,-3,2%,.,
Cc1ccc(-c2ccc(SCC(=O)NC3CCCC3)nn2)cc1,-0.4,.,5,.,.,
# More entries follow:
SMILES,RecA intein inh,Arbovirus inh,Mtb bLac sens,Mtb growth,YopH PTP inh,others
CCOc1cc(/C=N/NC(=O)Cn2nc([N+](=O)[O-])cc2C)cc(Br)c1OCc1ccccc1F,0.8,-18,97,0%,17,
O=C(Cc1ccccc1)N/N=C/c1cccs1,-1.5,-3,-9,1%,-36,
O=C(Nc1ccc(O)cc1)C1CCCO1 (centres undefined),.,0,-15,-5%,-7,
CC(C)C[C@@H](CN=[N+]=[N-])N1CCN(C)CCC1=O,0.2,.,-13,.,.,
O=C(O)/C=C/C(=O)c1ccc2c(c1)NC(=O)CO2,0.9,12,7,-2%,.,
COc1ccccc1-c1c(-c2ccc(O)cc2O)n[nH]c1C(F)(F)F,-1.1,.,2,1%,.,
COc1ccc(CCN2C(=NC(=O)C(C)C)SC3CS(=O)(=O)CC32)cc1 (centres undefined),1.4,.,-4,3%,.,
C=CCN(c1ccc(C(=O)N(CC)CC)cc1)S(C)(=O)=O,.,13,-3,-4%,-23,
COc1ccccc1CNC(=O)C(CCSC)NC(=O)C1CCC(C)CC1 (centres undefined),-0.2,-7,0,-6%,-12,
CN1CCN(c2ccccc2NC(=O)c2cccs2)CC1,0.8,.,1,.,.,
O=C(CCC(=O)c1ccc(Cl)cc1)OCc1nc2ccsc2c(=O)[nH]1,-0.3,.,-1,.,.,
O=C(CSc1nnc(-c2ccc(Cl)cc2)n1Cc1ccco1)c1cccs1,2.8,3,-5,-3%,4,
Cn1c(=O)c2[nH]c(-c3ccc(S(=O)(=O)O)cc3)nc2n(C)c1=O,-1.1,.,100,3%,.,
N#CC1(c2nc3ccccc3[nH]2)CC1c1ccc2c(c1)OCO2 (centres undefined),1.1,-14,0,14%,-36,
Cc1cccnc1NC(N)=S,.,3,-4,-4%,.,
O=C(COC(=O)C1CCC1)Nc1cccc(Cl)c1,0.6,.,3,.,.,
CN1CCN(C(=O)c2ccc(C(F)(F)F)cc2)CC1,-2.2,1,-1,-1%,.,
COc1ccc(N(CC(=O)Nc2cccc(C)c2C)S(=O)(=O)c2c(C)[nH]c(=O)[nH]c2=O)cc1,1.5,.,0,6%,.,
O=C(N=Nc1c(O)[nH]c2ccccc12)c1cccs1,-0.6,14,60,2%,.,
Cc1ccc(OCC(=O)NCCNC(=O)c2ccncc2)cc1C,-2.8,.,5,.,.,
CCOc1nc2cnccc2n(CC(=O)Nc2ccccc2F)c1=O,-2.8,.,-6,.,.,
